Assay outcomes (PubChem)
2A StopGo: FMDV 2A StopGo reporter, luciferase signal | human cells with a luciferase reporter of 2A StopGo recoding; control for the full effect not named in the record | Potency, µM (doses to about 57.9 µM), for inactives: at the top dose signal change, negative = less light | 410,000 compounds, 1.2% hits; active = well fitted falling curve with a large enough effect; inconclusive = small, poorly fitted or top-dose-only effect; inactive = no such curve, though single readings can be large or run the other way; tested in HEK293T cells; further: on the % scale 0 is the no-effect control and ±100 the full control effect; nearly all actives have a fitted effect of over 45% in size; luciferase light after 4 h
RE007 growth inh: less growth of the S. pombe RE007 Vpr strain | AID 651644 | S. pombe RE007 Vpr strain, BacTiter-Glo ATP luminescence, 24 h; control for the full effect not named in the record | Potency, µM (top dose mostly 92.2 µM), inactives show at the top dose activity change, negative = less growth | 360,000 compounds, 0.21% hits; active = well fitted falling curve with a large enough effect; inconclusive = small, poorly fitted or top-dose-only effect; inactive = no such curve, though single readings can be large or run the other way;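 further: on the % scale 0 is the no-effect control and ±100 the full control effect; nearly all actives have a fitted effect of over 50% in size; the assay follows cell death caused by Vpr and the record does not say whether a fall means rescue or toxicity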
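Fission yeast RE007 carrying one integrated HIV-1 vpr copy, seeded at OD 0.01 in PMG+AL medium with 23 nL pinned compound. Grown 24 h at 30 degrees; viability read by BacTiter-Glo luminescence after 5 min.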
SARS PLpro yeast: SARS-CoV PLP inhibition in yeast | AID 485353 | Potency, µM (highest dose often 32.9 µM), for the others: top-dose activity, positive = growth rescue | S. cerevisiae expressing SARS-CoV PLpro, growth rescue; control for the full effect not named in the record | 330,000 compounds, 0.19% hits; active means well fitted rising curve with a large enough effect; inconclusive means small, poorly fitted or top-dose-only effect; inactive means no such curve, though single readings can be large or run the other way; further: 0% is about no effect; nearly all actives have a fitted effect of over 55% in size; growth read by luminescence after 48 h
Numbers without * were called inactive; [ ] = remark or other dose. Potency means the concentration at half of the fitted maximal effect.

How did CCOc1ncccc1C(=O)OCCCC(=O)c1ccc(Br)cc1 do in these assays?
2A StopGo: -18%; RE007 growth inh: -12%; SARS PLpro yeast: 0%

How did COc1ccc(C)cc1N(CC(=O)N/N=C/c1ccccc1C(=O)O)S(=O)(=O)c1ccccc1 do in these assays?
2A StopGo: 7%; RE007 growth inh: 14%; SARS PLpro yeast: -2%

What do the screens show for `CC1=C(C(=O)N(C)C)C(c2ccc(N3CCOCC3)cc2)NC(=O)N1` (configuration not stated)?
2A StopGo: -4%; RE007 growth inh: -2%; SARS PLpro yeast: 0%

Results for Fc1ccc(-c2csc(-c3ccccn3)n2)cc1F ?
2A StopGo: 53%[activator]; RE007 growth inh: -11%; SARS PLpro yeast: 0%

How did CCOc1ncccc1C(=O)N1CCN(S(=O)(=O)c2cccs2)CC1 do in these assays?
2A StopGo: -9%; RE007 growth inh: 0%; SARS PLpro yeast: 8%

Results for COC(=O)C(C(=O)Nc1cccc(Cl)c1C)C1CCCC1 (configuration not stated) ?
2A StopGo: -1%; RE007 growth inh: 11%; SARS PLpro yeast: 0%

How did C#CCOCCOCCOCCNc1nc(N2CCN(C(=O)[C@H](CCC(=O)O)n3cc([C@@H](N)[C@H](C)CC)nn3)CC2)nc(N2CCN(C(=O)[C@H](CCC(=O)O)n3cc([C@@H](N)CC(N)=O)nn3)CC2)n1 do in these assays?
2A StopGo: -12%; RE007 growth inh: -8%; SARS PLpro yeast: 3%

Results for C=CCNc1c2c(nc3ncnn13)CC(C)CC2 (configuration not stated) ?
2A StopGo: -15%; RE007 growth inh: -14%; SARS PLpro yeast: 0%

Results for CCn1c(Cc2ccccc2)nnc1SCC(=O)NC1CCCC1 ?
2A StopGo: 3%; RE007 growth inh: -12%; SARS PLpro yeast: 1%

Results for COc1ccc(S(=O)(=O)N2CCN(c3nn(C)c(=O)n(C)c3=O)CC2)cc1 ?
2A StopGo: -27%; RE007 growth inh: -10%; SARS PLpro yeast: 1%

What do the screens show for `N#Cc1ccc(C(=O)OCC(=O)Nc2cccc(S(=O)(=O)NC3=NCCC3)c2)cc1`?
2A StopGo: -10%; RE007 growth inh: -16%; SARS PLpro yeast: -6%

Results for COC(=O)C1=C(c2ccc(Cl)c(C(F)(F)F)c2)C[C@@H]2CC[C@H]1N2C(=O)NCCCOC(C)C ?
2A StopGo: -24%; RE007 growth inh: -2%; SARS PLpro yeast: 0%

What do the screens show for `CCOc1ncccc1C(=O)OCC(=O)NCc1cccs1`?
2A StopGo: 6%; RE007 growth inh: -13%; SARS PLpro yeast: -1%

How did Cc1[nH]c2ccccc2c1SCC(=O)N1CCCCC1 do in these assays?
2A StopGo: 30%[activator]; RE007 growth inh: 0%; SARS PLpro yeast: 0%

How did COC(=O)C1=C(C)N(C)C(=O)NC1c1ccc([N+](=O)[O-])o1 (configuration not stated) do in these assays?
2A StopGo: -14%; RE007 growth inh: -9%; SARS PLpro yeast: -1%

What do the screens show for `CC(C)NC(=O)N(C)C[C@@H]1Oc2ccc(NC(=O)Nc3ccc(C(F)(F)F)cc3)cc2CC(=O)N([C@H](C)CO)C[C@@H]1C`?
2A StopGo: -12%; RE007 growth inh: 15%; SARS PLpro yeast: -1%

What do the screens show for `Cc1cc(C)c(NC(=O)COc2cccnc2[N+](=O)[O-])c(C)c1`?
2A StopGo: -6%; RE007 growth inh: -6%; SARS PLpro yeast: 0%

How did Cc1ccccc1NC(=O)Cc1nc(COC(=O)c2cc(Br)ccc2O)cs1 do in these assays?
2A StopGo: 6%; RE007 growth inh: 2%; SARS PLpro yeast: -1%

Results for Cc1c(C2(O)CCCCC2)[nH]c2ncccc12 ?
2A StopGo: -12%; RE007 growth inh: -1%; SARS PLpro yeast: 5%

What do the screens show for `CCCCNc1c(-c2ccc(-c3cccc(Cl)c3)cc2)nc2ccccn12`?
2A StopGo: -20%; RE007 growth inh: inconclusive; SARS PLpro yeast: 4%

3 compounds from above, ordered by length of the SMILES, smallest number first.
Results for Fc1ccc(-c2csc(-c3ccccn3)n2)cc1F ?
2A StopGo: 53%[activator]; RE007 growth inh: -11%; SARS PLpro yeast: 0%

What do the screens show for `CCOc1ncccc1C(=O)OCC(=O)NCc1cccs1`?
2A StopGo: 6%; RE007 growth inh: -13%; SARS PLpro yeast: -1%

How did CCOc1ncccc1C(=O)N1CCN(S(=O)(=O)c2cccs2)CC1 do in these assays?
2A StopGo: -9%; RE007 growth inh: 0%; SARS PLpro yeast: 8%

Continuation.
How did Cc1ccc(S(=O)(=O)N(C)c2ccc(OC(=O)c3ccc(=O)[nH]c3)cc2)cc1 do in these assays?
2A StopGo: -11%; RE007 growth inh: -6%; SARS PLpro yeast: 0%

What do the screens show for `OC(CCc1ccncc1)c1ccccc1` (configuration not stated)?
2A StopGo: -1%; RE007 growth inh: 11%; SARS PLpro yeast: 1%

What do the screens show for `CC(=O)Nc1ccc2nc(C3CC3)n(Cc3ccc(Cl)cc3)c(=O)c2c1`?
2A StopGo: 49%[activator]; RE007 growth inh: 1%; SARS PLpro yeast: 1%

Results for COc1cc(OC)c(OC)cc1/C=C1\CCC(C2CCCC2)C1=O (configuration not stated) ?
2A StopGo: -6%; RE007 growth inh: 5%; SARS PLpro yeast: -6%

Results for Cn1cc(C(=O)N/N=C/c2c(O)ccc3ccccc23)ccc1=O ?
2A StopGo: -7%; RE007 growth inh: 1%; SARS PLpro yeast: 1%

What do the screens show for `COc1cc(CC(=O)OCC(=O)NC2CCCCC2C)cc(OC)c1OC` (configuration not stated)?
2A StopGo: -15%; RE007 growth inh: 28%; SARS PLpro yeast: -7%

What do the screens show for `Cc1ccc(C(=O)NC(=S)NCc2cccnc2)cc1C`?
2A StopGo: 8%; RE007 growth inh: -20%; SARS PLpro yeast: 14%

What do the screens show for `O=C(COC(=O)c1ccccc1C(=O)OCC(=O)NCCc1c[nH]c2ccccc12)NCCc1c[nH]c2ccccc12`?
2A StopGo: -24%; RE007 growth inh: 2%; SARS PLpro yeast: -4%

What do the screens show for `O=C(Cc1ccccn1)c1ccc(Cl)cc1`?
2A StopGo: 46%[activator]; RE007 growth inh: inconclusive; SARS PLpro yeast: 0%

How did CC(C)(C)OC(=O)N[C@H](C(=O)OC(C)(C)C)c1ccc2ccccc2c1 do in these assays?
2A StopGo: -10%; RE007 growth inh: 0%; SARS PLpro yeast: -6%

What do the screens show for `COc1ccc(CNC(=O)CC2C[C@H](C(=O)N3CCOCC3)[C@@]3(C)c4[nH]c5ccccc5c4CCN3C2=O)cc1OC` (some centres not stated)?
2A StopGo: -1%; RE007 growth inh: 1%; SARS PLpro yeast: 1%

Results for O=C(COC(=O)CCc1nc2ccccc2c(=O)[nH]1)NC1CCS(=O)(=O)C1 (configuration not stated) ?
2A StopGo: -5%; RE007 growth inh: 12%; SARS PLpro yeast: -6%

Results for CC(C)(C)OC(=O)C[C@@H]1C/C=C\C[C@@H](CC(=O)N[C@H](CO)Cc2ccccc2)C(=O)NCCOC1=O ?
2A StopGo: inconclusive; RE007 growth inh: 0%; SARS PLpro yeast: 7%

What do the screens show for `N#Cc1ccccc1S(=O)(=O)N1CCNS(=O)(=O)c2ccccc21`?
2A StopGo: -13%; RE007 growth inh: 6%; SARS PLpro yeast: 3%

How did CC(C)C(NS(=O)(=O)c1cccc(C(F)(F)F)c1)C(=O)NCc1cccs1 (configuration not stated) do in these assays?
2A StopGo: -8%; RE007 growth inh: 7%; SARS PLpro yeast: -4%

How did COc1cc(OC)cc(-c2sc3ccc(OC)cc3c2-c2ccc(OCCN3CCOCC3)cc2)c1 do in these assays?
2A StopGo: -28%; RE007 growth inh: -23%; SARS PLpro yeast: -42%

What do the screens show for `Cc1ccc(S(=O)(=O)N2CCOCC2)cc1-c1n[nH]c(=S)n1-c1ccccc1`?
2A StopGo: -23%; RE007 growth inh: -3%; SARS PLpro yeast: 0%

What do the screens show for `CSc1nc(N)nc2c1ncn2CC(=O)N1CCN(c2ccccn2)CC1`?
2A StopGo: -20%; RE007 growth inh: -3%; SARS PLpro yeast: 0%

Results for CC[C@]1(C(=O)OC)[C@H]2C(=O)N(C)C(=O)[C@H]2[C@H]2CN=C(SCC3CC3)N21 ?
2A StopGo: -14%; RE007 growth inh: 4%; SARS PLpro yeast: 9%

How did COc1ccc(NC(=O)C2=NN(C3CCS(=O)(=O)C3)C(=O)CC2)cn1 (configuration not stated) do in these assays?
2A StopGo: -4%; RE007 growth inh: 7%; SARS PLpro yeast: -2%

What do the screens show for `O=S(=O)(Nc1cc(S(=O)(=O)N2CCOCC2)ccc1O)c1ccc2c(c1)OCCCO2`?
2A StopGo: 10%; RE007 growth inh: -3%; SARS PLpro yeast: -2%

How did CC1CCc2[nH]c3ccc(C(=O)NCCCOC(C)C)cc3c2C1 (configuration not stated) do in these assays?
2A StopGo: -10%; RE007 growth inh: 4%; SARS PLpro yeast: 1%

How did COc1ccc(NC(=O)CN(C)C(=O)c2cc(C3CC3)nn2-c2ccccc2)cc1 do in these assays?
2A StopGo: -10%; RE007 growth inh: -10%; SARS PLpro yeast: -2%

How did COc1ccc(-c2cc(-c3nc4ccccn4c3NCc3ccccc3)ccc2OC)cc1 do in these assays?
2A StopGo: 3.5µM*; RE007 growth inh: -3%; SARS PLpro yeast: -4%

How did CCCCn1c(N)c(N(CCOC)C(=O)c2c(CC)noc2C)c(=O)[nH]c1=O do in these assays?
2A StopGo: -10%; RE007 growth inh: 10%; SARS PLpro yeast: -3%

What do the screens show for `Cc1ccc(S(=O)(=O)N2C[C@@H]3[C@H]4CC[C@H](C4)[C@@H]3[C@@H](C)[C@@H]2c2ccn([Si](C(C)C)(C(C)C)C(C)C)c2)cc1`?
2A StopGo: -22%; RE007 growth inh: 3%; SARS PLpro yeast: 1%

Results for COc1cc2cnc(-c3ccccc3)c(-c3cc(OC)c(OC)c(OC)c3)c2cc1OC ?
2A StopGo: -20%; RE007 growth inh: -11%; SARS PLpro yeast: 1%

Results for CC(NC(C)c1ccccc1Cl)C(=O)Nc1cccc(S(=O)(=O)N2CCCCC2)c1 (configuration not stated) ?
2A StopGo: 17%; RE007 growth inh: -7%; SARS PLpro yeast: -2%

How did CCOc1ccc(NC(=O)COC(=O)CC2CC3CCC2C3)cc1 (configuration not stated) do in these assays?
2A StopGo: -17%; RE007 growth inh: -12%; SARS PLpro yeast: -10%

What do the screens show for `COc1cc(C(=O)NNC(=O)COc2ccc(C)cc2)ccc1OCC(=O)N1CCOCC1`?
2A StopGo: -6%; RE007 growth inh: 0%; SARS PLpro yeast: 0%

How did O=C(Cn1cnc2c(OCc3ccccc3)ncnc21)NCc1ccccn1 do in these assays?
2A StopGo: 1%; RE007 growth inh: 8%; SARS PLpro yeast: 2%

Results for c1cc2c(cc1[C@H]1OC[C@H]3[C@@H]1CO[C@H]3c1ccc3c(c1)OCO3)OCO2 ?
2A StopGo: inconclusive; RE007 growth inh: -20%; SARS PLpro yeast: inconclusive

Results for O=C(NC1CCCCCC1)c1ccc(=O)n(Cc2ccccc2)n1 ?
2A StopGo: -18%; RE007 growth inh: 19%; SARS PLpro yeast: -3%

How did O=C(NCc1ccc(F)cc1)c1cccc(S(=O)(=O)N2CCOCC2)c1 do in these assays?
2A StopGo: -15%; RE007 growth inh: 0%; SARS PLpro yeast: -10%

How did Cc1nc(SCC(=O)Nc2c(C)n(C)n(-c3ccccc3)c2=O)c(C#N)c(C)c1C do in these assays?
2A StopGo: 9%; RE007 growth inh: -7%; SARS PLpro yeast: -1%[6.58 µM]

Results for C/C(=C\c1ccc(C)o1)C(=O)c1c(C)cc(C)[nH]c1=O ?
2A StopGo: -8%; RE007 growth inh: 0%; SARS PLpro yeast: 5%

What do the screens show for `Cc1ccc(CNC(=O)c2ccc(Cl)c(S(=O)(=O)N3CCCCC3)c2)cc1`?
2A StopGo: 0%; RE007 growth inh: 4%; SARS PLpro yeast: 4%

What do the screens show for `C[C@]12C(=O)N(c3ccc(Br)cc3)C(=O)N1[C@H]1c3ccccc3OC[C@@H]1[C@H]2c1ccccc1`?
2A StopGo: -24%; RE007 growth inh: -8%; SARS PLpro yeast: 5%

What do the screens show for `CN(C)S(=O)(=O)c1ccc(C(=O)NCC(=O)N/N=C/c2cccs2)cc1`?
2A StopGo: -2%; RE007 growth inh: 2%; SARS PLpro yeast: 0%

Results for C#CCOCCOCCOCCNc1nc(N2CCN(C(=O)[C@H](CCCN=C(N)N)n3cc(C(N)[C@@H](C)CC)nn3)CC2)nc(N2CCN(C(=O)[C@H](CCC(=O)O)n3cc([C@@H](N)CO)nn3)CC2)n1 (some centres not stated) ?
2A StopGo: -4%; RE007 growth inh: 4%; SARS PLpro yeast: -5%

Results for COc1ccc(S(=O)(=O)N2CCOCC2)cc1NC(=O)CCc1cc(OC)c(OC)c(OC)c1 ?
2A StopGo: -14%; RE007 growth inh: 5%; SARS PLpro yeast: 2%

An excerpt. The share of hits here may be higher or lower than overall.
